CBX7 inh – inhibitors of human CBX7 binding to H3K27me3 peptide; AlphaScreen His6-CBX7 / biotin-H3K27me3 peptide binding; stronger effect = lower value; normalised signal (fraction of DMSO) (test concentration not listed); actives 1.1% (n = 66,000); AID 1224903; in the data active = normalised signal below about 0.5;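 also: 100 nL library stock added to about 20 µL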
Target sequence (O95931 whole entry, looked up): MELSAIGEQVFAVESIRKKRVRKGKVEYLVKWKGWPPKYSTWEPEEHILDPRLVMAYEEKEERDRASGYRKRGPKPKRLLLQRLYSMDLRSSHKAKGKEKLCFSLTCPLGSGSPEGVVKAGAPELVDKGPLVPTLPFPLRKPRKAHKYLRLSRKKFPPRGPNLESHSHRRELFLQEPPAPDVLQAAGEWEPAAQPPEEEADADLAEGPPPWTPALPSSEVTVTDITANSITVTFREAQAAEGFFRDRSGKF
CBX7 inh z-score – recorded beside CBX7 inh, whose call it bears; z-score; measured here: z-score of CBX7 signal; some inactives read as strong as hits; reference of the scale not given here;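 same signal on another scale; lower means less binding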
Starred values were filed as active, the others as inactive; & = joins results of further samples.

SMILES	CBX7 inh	CBX7 inh z-score
CC(NC(=O)CN1C(=O)COc2ccc(S(=O)(=O)N3CCOCC3)cc21)c1ccc2c(c1)OCCO2 (stereo not given)	1.04	0.575
CCc1ccc(-c2nc(CN3CCC(C(=O)NCCc4ccc(OC)c(OC)c4)CC3)c(C)o2)cc1	0.981	-0.287
Cc1ccccc1-n1nc2c(c1NC(=O)CCc1ccccc1)CSC2	1	0.12
Cc1ccc(S(=O)(=O)c2c[nH]c3cc4c(cc3c2=O)OCO4)cc1	1.03	1.14
CCN(c1cccc(C(F)(F)F)c1)S(=O)(=O)c1ccc2c(c1)CCN2C(C)=O	1.22	1.6
CCOC(=O)N1CCC(Nc2c(N3CCCC(C)C3)c(=O)c2=O)CC1 (stereo not given)	1.05	0.827
COCCN(C(=O)Nc1ccc(OC)cc1OC)C1CCN(C(C)=O)CC1	0.977	-0.564
CCc1nnc(NS(=O)(=O)c2ccc(NC(=O)C(C)C)cc2)s1	1.04	1.1
COc1ccc(-c2ccc(=O)n(Cc3cccc(Cl)c3)n2)cc1	1.02	0.498
Cc1nc2cc(-c3cccc(F)c3)nn2c(C)c1CCC(=O)NC(C)C	0.901	-1.62
Cc1ccc(-c2nc3ncccc3o2)cc1NC(=O)COc1ccc(Cl)cc1Cl	1.01&1.13	0.0714&2.24
COc1ccc(-c2cc3nc(C)c(CCC(=O)N4CCc5ccccc54)c(C)n3n2)c(OC)c1	0.952	-0.532
CCC(=O)N1CCc2cc(S(=O)(=O)N3CCN(c4ccccc4Cl)CC3)ccc21	0.734	-1.07
COc1ccc(CNC(=O)c2nn3c(C(F)(F)F)cc(-c4cccs4)nc3c2Cl)cc1	1.06	2.29
COc1ccc(CN2CC(C(=O)NC3CCCCCC3)CC2=O)cc1 (stereo not given)	1.04	0.0734
Cc1ccc(-c2nc(Nc3ccc(Cl)cc3C)c3ccccc3n2)cc1	0.919	-1.4
O=C(C1CCC1)N1CCc2cc(S(=O)(=O)NCC3COc4ccccc4O3)ccc21 (stereo not given)	1.02	0.583
Cc1ccc(N2CC(c3nc4ccccc4n3CCC(C)C)CC2=O)cc1C (stereo not given)	0.961	-0.891
O=C(COc1ccc(Cl)cc1)NCc1nnc(SCC(=O)Nc2ccc(F)cc2)o1	0.946	-0.59
CCN(CC)S(=O)(=O)c1ccc(Cl)c(-c2nnc(-c3ccc(C)cc3)o2)c1	1.18	3.9
Cc1cc(C)c2oc(-c3cc(NC(=O)c4cccnc4)ccc3Cl)nc2c1	0.855	-1.72
CCc1ccc(NC(=O)Cc2ccc(NC3=NC4CS(=O)(=O)CC4S3)cc2)cc1 (stereo not given)	1.05	1.16
COc1cc2c(cc1OC)C(c1ccc(OC(C)C)cc1)CC(=O)N2 (stereo not given)	0.86	-0.186
COC(=O)c1ccccc1NC(=O)c1cnc2sccn2c1=O	1.15	1.81
Cc1cc2ccccc2c(=O)n1CC(=O)NCC(=O)N1CCN(c2ccc(F)cc2)CC1	1.01	0.615
Oc1ccc2ccccc2c1CNc1nc(-c2ccccc2)cs1	0.798	-0.35
COc1ccc(-c2nc(CSCC(=O)NC(C)c3ccccc3)c(C)o2)cc1 (stereo not given)	0.964	-0.917
CC(=O)N1CCc2cc(S(=O)(=O)NCCC(=O)NCc3ccc(C(=O)O)cc3)ccc21	1.04	1.75
FC(F)(F)c1cc(-c2ccco2)nc(-n2ccnc2)n1	1	0.0893
Cc1onc(-c2ccccc2)c1C(=O)Nc1ccccc1F	0.982	-0.374
CCOC(=O)c1c(NC(=O)c2ccc(C)cc2)sc2c1CCCC2	1.19	1.79
CCC1=Nc2cc(C(=O)N3CCc4ccccc4C3)ccc2Sc2ccccc21	0.869	-0.301
Cc1ccc(C)c2[nH]c(=O)c(CCNC(=O)c3ccc4ccccc4c3)cc12	1.08	0.131
O=C(Nc1nnc(Cc2ccc(Cl)cc2)s1)c1ccncc1	1.09	1.85
CC1=C(C(=O)Nc2ccc(Br)cn2)C(c2ccc(C)cc2)C2=C(CCCC2=O)N1 (stereo not given)	1.64	1.3
CC1CCCCN1CCCNC(=O)c1cc(=O)[nH]c2ccc(S(=O)(=O)N3CCCC3)cc12 (stereo not given)	1.04	1.27
Cc1ccc(C)c(Nc2cc(C(=O)NCCN3CCCCCC3)c3ccccc3n2)c1	1.04	1.02
O=C(NC1CCCCCCC1)c1nnc(Cc2ccc(Cl)cc2)o1	1.18	2.2
Cc1cc(NCc2ccc(F)cc2Cl)n2ncnc2n1	0.922	-1.7
COc1ccc2nc(NC(=O)COc3ccc(Cl)cc3)sc2c1	1.07	1.47
CCOc1ccc(C(=O)N(Cc2ccc(N(C)C)cc2)C2CCS(=O)(=O)C2)cc1 (stereo not given)	1.02	0.142
COc1cc(NC(=O)CCc2c(C)nc3cc(-c4cccc(F)c4)nn3c2C)cc(OC)c1	0.963	-0.889
CCOC(=O)N1CCN(c2ccc3nnc(C(F)(F)F)n3n2)CC1	0.988	-0.463
Nc1cccc(C(=O)CC2(O)C(=O)N(Cc3ccccc3)c3ccccc32)c1 (stereo not given)	0.933	-0.169
COCCn1cnc2sc(C(=O)Nc3cccc(Cl)c3)c(C)c2c1=O	1.03	1.06
O=C(CN1C(=O)COc2ccccc21)NCc1cccs1	0.958	-0.955
CCCCCCC(O)(c1ccc(OCC)cc1)C(CN1CCOCC1)c1ccccc1 (stereo not given)	0.76	-2.54
CCOC(=O)N1CCN(C(=O)c2cc(-c3ccncc3)nc3ccccc23)CC1	0.995	-0.0644
COc1ccc(Cl)cc1NC(=O)c1c(C)c(-c2ccccc2)nc2ccccc12	0.916	-0.192
Cc1ccc(-c2nc(CS(=O)(=O)CC(=O)NC(C)c3ccc4c(c3)OCCO4)c(C)o2)cc1 (stereo not given)	0.851	-0.309
(more compounds)
SMILES	CBX7 inh	CBX7 inh z-score
Cc1cccc(Cc2c(C)nc3c(C(=O)NCCC4=CCCCC4)cnn3c2C)c1	0.781	-5.43
COc1ccc(C2CC(C(F)(F)F)n3ncc(C(N)=O)c3N2)cc1 (stereo not given)	1.1	1.41
O=C(NCc1ccccc1Cl)C1CCC(=O)N1CCc1ccccc1 (stereo not given)	1.07	1.34
Cc1onc(-c2ccccc2Cl)c1C(=O)Nc1ccc(C(=O)N(C)c2ccccc2)cc1	0.937	-0.87
O=C(c1c[nH]c2ccc(S(=O)(=O)Nc3ccccc3F)cc2c1=O)N1CCc2ccccc21	1.1	1.79
O=C(NCC1CCCO1)C1CCN(c2nnc(-n3cccc3)s2)CC1 (stereo not given)	0.974	-1.05
CCOC(=O)c1cc(-c2ccccc2)n(CCC(=O)NCc2ccc(F)cc2)c1C	1.16	2.91
CCN(CCNC(=O)c1ccc2nc(-c3ccccc3NC(C)=O)c(=O)[nH]c2c1)c1ccccc1	1.01	0.157
COc1ccc(C2CC(=O)N(CC(=O)Nc3ccccc3C)c3ccccc3S2)cc1 (stereo not given)	0.963	-0.615
COCc1cc(=O)[nH]c(Nc2nc3ccccc3s2)n1	1.05	1.13
Cc1ccc2cc(CCNC(=O)CC(C)C)c(=O)[nH]c2c1	1.01	0.465
CCCCNC(=O)c1ccc2c(c1)N(Cc1cccc(Cl)c1)C(=O)CS2	0.937	-1.35
O=C(Nc1ccc(F)c(Cl)c1)c1cc(C2CC2)on1	1.08	2.58
Cc1cc2ccccc2c(=O)n1CC(=O)NCC(=O)N1CCCC1	1.11	1.1
NCCNC(=O)c1nonc1N	1.08	2.08
COc1ccc2nc(N3CCC(C(=O)NCCC(C)C)CC3)sc2c1	1.08	1.42
O=C(NCCN1CCOCC1)c1cc(-c2cccc(O)c2)on1	1.05	1.64
CCN(C(=O)Cc1c(C(=O)O)[nH]c2ccccc12)c1cc(OC)ccc1OC	0.895	-0.415
COc1ccccc1-c1cc2nc(C)c(CCC(=O)Nc3cc(F)ccc3F)c(C)n2n1	1.05	1.58
Cc1ccc2[nH]c3c(c2c1)CCCC3NC1CCCCC1 (stereo not given)	0.835	-4.86
COc1ccc(Nc2cc(C(=O)NCCc3ccccc3)c3ccccc3n2)cc1OC	0.821	-2.12
COc1ccc(C2c3c(noc3C)CC(C)(O)C2C(C)=O)cc1 (stereo not given)	0.978	-0.249
O=C(c1ccccc1)c1cn(Cc2ccc(F)cc2)c2ccc(F)cc2c1=O	0.871	-1.24
Cc1nc2ncccn2c1-c1csc(Nc2ccc(Br)cc2Br)n1	1.05	0.524
CCCN1Cc2cccc(C(=O)NC3CCCCCC3)c2C1=O	1.04	0.0409
COc1ccccc1CNC(=O)c1cc(-c2cccnc2)nc2ccccc12	1.15	1.1
COc1ccc(NC(=O)C2CCCN2S(=O)(=O)c2cccc3cccnc23)c(OC)c1 (stereo not given)	0.941	-2
Cc1cc(N2CC(C)CC(C)C2)nc2ccc(NC(=O)CCC(=O)Nc3ccc(F)cc3)cc12 (stereo not given)	1.03	1.13
CC1=Nc2ccc(C)cc2N(Cc2ccccc2)C(=O)C1	0.951	-1.43
CC(C)CCNC(=O)c1cnn(-c2ccccc2)c1-n1cccc1	1.03	1.34
Cc1cc(N2CCCCC2)nc2ccc(NC(=O)c3ccc(Cl)nc3)cc12	1	0.00101
Cc1ccc(Cn2cc(CCC(=O)NCCc3ccccc3)c3ccccc32)cc1	1.05	0.423
Cn1nnnc1S(=O)(=O)CC(=O)Nc1ccccc1F	1.05	0.534
c1ccc(-c2nnc(-c3ccccc3)c3nocc23)cc1	0.687	-3.07
COc1ccc(NC(=O)c2c[nH]n3c(=O)cc(C4CCNCC4)nc23)cc1OC	0.956	-1.12
Cc1cc(N2CCN(c3ncccn3)CC2)nc2ccc(NC(=O)c3ccc(Cl)nc3)cc12	1	0.137
CCOC(=O)C1CCCN(c2c(NCCCN3CCN(C)CC3)c(=O)c2=O)C1 (stereo not given)	1.1	2.33
Cc1ccc2c(c1)C(c1ccccc1)N(C(=O)CCC1CCCCC1)CC(=O)N2 (stereo not given)	0.839	-4.08
O=C(CSc1nnc(Cc2cc(=O)[nH]c(=O)[nH]2)n1-c1ccccc1)Nc1ccc(Cl)cc1	1.04	1.56
Cc1cc(N2CCN(C)CC2)nc2ccc(NC(=O)c3ccc(C(C)(C)C)cc3)cc12	0.666	-6.04
COc1ccc(-c2nc3cc(NC(=O)Cc4ccc(OC)c(OC)c4)ccc3o2)cc1	1.06	0.589
CCc1ccc(C2CC(c3ccccc3C)n3nnnc3N2)cc1 (stereo not given)	0.781	-3.07
Cc1ccc(C(=O)Nc2cccc(-c3nc4ncccc4o3)c2)c(Cl)c1	1.04	0.862
O=C1C2C3c4ccccc4C(CO)(c4ccccc43)C2C(=O)N1c1ccc(Cl)cc1Cl (stereo not given)	0.968	-0.865
CCN(C(=O)Cn1ncc2c1-c1ccccc1OC2)c1cc(C)ccc1C	0.818	-5.24
Cc1ccc(Nc2nc(C)c(C(=O)Nc3ccc(Br)cc3)s2)cc1	0.829	-2.74
O=c1[nH]c2ccc(S(=O)(=O)NCc3ccccc3Cl)cc2[nH]c1=O	0.99	-0.466
COC(=O)c1c(NC(=O)c2cccc(OC)c2)sc(C)c1C	1.79	1.98
CCOc1ccc(C(=O)N2CC(=O)Nc3ccc(Cl)cc3C2c2ccccc2)cc1 (stereo not given)	0.932	-1.72
Cc1nc2c(c(C)nn2-c2ccccc2)c(C)c1CCC(=O)N1CC(C)CC(C)C1 (stereo not given)	1.1	0.739

An excerpt taken from the entries so far, for reference:
SMILES	CBX7 inh	CBX7 inh z-score
Cc1cc(N2CCN(c3ncccn3)CC2)nc2ccc(NC(=O)c3ccc(Cl)nc3)cc12	1	0.137
CCOC(=O)C1CCCN(c2c(NCCCN3CCN(C)CC3)c(=O)c2=O)C1 (stereo not given)	1.1	2.33
Cc1ccc2c(c1)C(c1ccccc1)N(C(=O)CCC1CCCCC1)CC(=O)N2 (stereo not given)	0.839	-4.08
O=C(CSc1nnc(Cc2cc(=O)[nH]c(=O)[nH]2)n1-c1ccccc1)Nc1ccc(Cl)cc1	1.04	1.56
Cc1cc(N2CCN(C)CC2)nc2ccc(NC(=O)c3ccc(C(C)(C)C)cc3)cc12	0.666	-6.04
COc1ccc(-c2nc3cc(NC(=O)Cc4ccc(OC)c(OC)c4)ccc3o2)cc1	1.06	0.589
CCc1ccc(C2CC(c3ccccc3C)n3nnnc3N2)cc1 (stereo not given)	0.781	-3.07
Cc1ccc(C(=O)Nc2cccc(-c3nc4ncccc4o3)c2)c(Cl)c1	1.04	0.862
O=C1C2C3c4ccccc4C(CO)(c4ccccc43)C2C(=O)N1c1ccc(Cl)cc1Cl (stereo not given)	0.968	-0.865
CCN(C(=O)Cn1ncc2c1-c1ccccc1OC2)c1cc(C)ccc1C	0.818	-5.24
Cc1ccc(Nc2nc(C)c(C(=O)Nc3ccc(Br)cc3)s2)cc1	0.829	-2.74
O=c1[nH]c2ccc(S(=O)(=O)NCc3ccccc3Cl)cc2[nH]c1=O	0.99	-0.466
COC(=O)c1c(NC(=O)c2cccc(OC)c2)sc(C)c1C	1.79	1.98

(list continues)
SMILES	CBX7 inh	CBX7 inh z-score
COc1ccc2c(c1)CCc1c(C(=O)Nc3cc(C)n(Cc4ccc(Cl)cc4)n3)noc1-2	1.04	0.802
CCCCCc1ccc(-c2ccc(C(=O)Nc3cccc(Cl)c3)cc2)nc1	1.05	1.08
CCCCCn1c(C(C)NC(=O)c2ccc(F)cc2)nc2ccccc21 (stereo not given)	0.953	-1.75
Cc1ccc(NC(=O)CCC2=NS(=O)(=O)c3ccccc3N2)cc1	1.08	1.22
O=C(NCc1ccccc1)C1CC(=O)N(c2ccccc2)C1 (stereo not given)	1.07	1.85
Cc1ccc(CNC(=O)CN2C(=O)CSc3ccc(S(=O)(=O)N4CCC(C)CC4)cc32)cc1	0.906	-1.02
O=C(NCCc1ccc(Cl)cc1)c1cc(-c2ccncc2)nc2ccccc12	1.06	0.0702
COc1ccc(-c2cc(C(F)(F)F)n3nc(C(=O)Nc4cccc(C)c4Cl)c(Cl)c3n2)cc1OC	0.932	-0.882
COc1ccccc1CNc1ncccc1N1C(=O)CCC1=O	1.05	0.623

These rows are one share of the data; count on the stated rates, not on these rows.
